Source: PubChem
Yeast UUG start: alters start codon recognition fidelity in yeast; actives 0.13% (n = 350,000); activity score, % at 18.7 µM; S. cerevisiae UUG-firefly luciferase reporter, luminescence/redox ratio;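 active = replicate mean at a twofold rise or more, about +100% in these data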;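 also: firefly luciferase made from a UUG start codon reports start codon fidelity; reporter light over untreated wells divided by growth signal over untreated wells; some hits fall short of that in this replicate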
HIV Env fusion: inhibitors of HIV Env-mediated cell fusion; HeLa-JRFL Env/CEM21 cell fusion, luciferase; inhibition, % at 12.3 µM; actives 1.1% (n = 360,000); AID 651610;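 active = mean replicate inhibition score of at least 50 and every replicate individually at or above 50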;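 also: 0% = plate neutral controls and 100% = maraviroc near 300 nM; one replicate is shown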
PABP FP inh: blocks human PABP binding to poly(A) RNA; fluorescence polarization; inhibition, % at 35 µM; actives 1% (n = 290,000);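 active = 50% or more with normal probe brightness, or confirmed in later tests; about a fifth of its hits are not listed in these tables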;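 also: calls also rest on retests at 20 µM and on dose response follow-up; controls were probe without protein and protein plus probe with vehicle; some compounds called inactive have numbers as strong as hits; many hits fall short of the cut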
Rce1 inh: inhibitors of yeast Ras-converting enzyme; actives 0.27% (n = 290,000); yeast membranes, quenched prenylated peptide cleavage fluorescence; calls only;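 active = fall in fluorescence gain of 50% or more versus controls, with final raw signal at or below 3038400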;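 also: plate controls were neutral control wells for no effect and wells lacking membranes for full effect; tested at 10 µM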
Target sequence (Q03530 whole entry, looked up): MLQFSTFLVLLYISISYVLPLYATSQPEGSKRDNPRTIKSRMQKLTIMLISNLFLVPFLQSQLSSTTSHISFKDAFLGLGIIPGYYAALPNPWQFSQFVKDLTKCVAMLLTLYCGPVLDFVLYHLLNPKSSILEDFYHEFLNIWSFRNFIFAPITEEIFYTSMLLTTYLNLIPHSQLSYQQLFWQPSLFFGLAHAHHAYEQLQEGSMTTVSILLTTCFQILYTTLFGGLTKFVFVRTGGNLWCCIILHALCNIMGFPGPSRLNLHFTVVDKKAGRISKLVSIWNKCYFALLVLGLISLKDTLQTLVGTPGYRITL
CSC inhib: blocks cancer stem cells; cancer stem cell-like cells viability, luminescence; inhibition, % at 7.5 µM; AID 2717; actives 1.1% (n = 300,000);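 active = mean at 75% or more and at least half the replicates too; tested in HMLE shEcad cells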;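 also: 0% = median of negative and 100% = median of positive control wells; the first replicate is given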
eIF4H inh: inhibitors of RNA binding by human eIF4H. Q15056. eIF4H fluorescence polarization binding assay. inhibition, % at 35 µM. actives 0.94% (n = 290,000). AID 2012;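 active = 50% or more with normal probe brightness, or confirmed in later tests; about a fifth of its hits are not listed in these tables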;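 also: calls also rest on retests at 20 µM and on dose response follow-up; 0% = protein and probe with vehicle and 100% = probe without protein; strong numbers were not always called active; many hits fall short of the cut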
MT1-MMP act inh: blocks activation of human MT1-MMP; HT1080 RFP-PRO-GFP cells, GFP/RFP ratio fluorescence, overnight; percent of plate control window, DMSO zero; GFP/RFP ratio change, % at 20 µM; actives 0.061% (n = 360,000); AID 651647;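 active = GFP/RFP ratio change of at least 30% with cell ATP level not reduced by more than half and red fluorescence within 50% of control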; also: strong numbers were not always called active
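Test system: HT1080 RFP-PRO-GFP cells; Benchmarks: DMSO and RFP-L50D-GFP cell wells; Timing: cells overnight before dosing, compound overnight, 37 °C, 5% CO2; Compound: one 20 µM compound dose with 1% DMSO; Read-out: GFP/RFP fluorescence ratio.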
eIF4H inh retest: recorded beside eIF4H inh, whose call it bears; inhibition, %; compound at 20 µM; confirmation average;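 mean of two retest wells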
PABP FP inh retest: recorded beside PABP FP inh, whose call it bears; inhibition, %; compound at 20 µM; confirmation repeats;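 mean of two retest wells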
MT1-MMP act inh RFP: further read-out of MT1-MMP act inh, marked with its call; RFP signal change, %; measured here: RFP expression control read;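 0 = vehicle wells; hits needed this value within 50% of zero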
Numbers without * were called inactive; i = inactive; nt = not tested or not shown; + = active, no number; & = joins results of further samples; [ ] = dose if it differs, or a comment. Some of the compounds tested; the hit share may differ from the screen's.

SMILES | Yeast UUG start | HIV Env fusion | PABP FP inh | Rce1 inh | CSC inhib | eIF4H inh | MT1-MMP act inh | MT1-MMP act inh RFP | others
COC(=O)c1sc2ncn(CC(=O)N(C)C3CCCCC3)c(=O)c2c1C | -22 | -2 | -1 | i | -10 | -11 | -2 | 0
CCOc1ccc(N(CC(=O)OC)S(=O)(=O)c2ccc(OC)c(OC)c2)cc1 | -2 | nt | -1 | i | -2 | -10 | 2 | -1
O=C(NCCn1ccc2ccccc21)c1ccc(S(=O)(=O)N2CCOCC2)cc1 | 2 | -1 | -1 | i | -13 | -7 | 13 | 1
COc1cccc(NC(=O)c2ccc3nc(C)sc3c2)c1 | -21 | 49 | -5 | i | 1 | 5 | 3 | -2
O=C(c1cc(-c2ccccc2)nc2ccccc12)N1CCN(c2ccccn2)CC1 | -5 | -54 | 3 | + | 5 | 4 | 3 | -2
O=C(CNC(=O)c1cccc(Br)c1)N/N=C/c1ccc[nH]1 | nt | 4 | -2 | i | 21 | 8 | -24 | -26
COC(=O)[C@@]1(Cc2ccc(F)cc2)[C@H]2c3cc(C(=O)N4CCCC4)n(Cc4ccc(C(F)(F)F)nc4)c3C[C@H]2CN1C(=O)c1ccccc1 | nt | -39 | 7 | i | 12 | -2 | nt | nt
Cc1ccc(NC(=S)NCC(O)c2ccccc2)c(C)c1 (stereo not drawn) | -37 | 17 | -8 | i | -14 | -7 | 1 | -3
O=C(Nc1ccc2c(c1)OCO2)c1cccc(F)c1 | -9 | -106 | 0 | i | 0 | -3 | -1 | -1
O=C1NC(=Nc2ccc(O)cc2)S/C1=C/c1ccco1 | -13 | -24 | -4 | i | 5 | 72 | -4 | -17 | eIF4H inh retest=-10;PABP FP inh retest=10
Cc1nc(C)c(C(=O)OCC(=O)Nc2ccc(C)c(C)c2)s1 | -15 | 13 | nt | nt | nt | nt | 2 | 2
OCCC1CN(CC(c2ccccc2)c2ccccc2)CCN1C1CCCC1 (stereo not drawn) | nt | 12 | -8 | i | -4 | -5 | -4 | -3
C[C@H](NC(=O)c1ccco1)C(=O)Nc1cccc([N+](=O)[O-])c1 | nt | -4 | nt | i | nt | nt | -3 | 2
Cc1cccc(N2CCN(Cc3ccoc3)CC2)c1C | nt | nt | -8 | i | 10 | 2 | 0 | -1
O=C(COC(=O)c1cc(Br)ccc1O)NC1CCCCCC1 | 2 | 5 | nt | i | -10 | nt | 1 | -1
COc1ccc(S(=O)(=O)N2CCN(CC(=O)NC3CC3)CC2)cc1 | -18 | nt | -9 | i | 6 | -2 | -5 | -2
Cc1cc(C)nc(NNC2=CC(=[N+]3CCCC3)CCC2)n1 | nt | -10 | -8 | i | 34 | 13 | 2 | 5
COc1cc(F)ccc1-c1csc(C(NC(C)=O)c2ccc(F)c(F)c2)n1 (stereo not drawn) | -11 | -51 | nt | nt | nt | nt | -2 | 0
COc1cc(Br)cc2cc(C(=O)N3CCN(C(=O)c4ccco4)CC3)c(=O)oc12 | -6 | nt | 17 | i | -14 | -2 | -2 | 1
Cc1cc2c(=O)n(Cc3ccco3)c(SCC(=O)c3ccc(Cl)s3)nc2s1 | -4 | 76* | 71 | i | nt | 2 | -6 | -17 | eIF4H inh retest=5;PABP FP inh retest=0
OC[C@@H]1CN(Cc2ccccc2)C[C@H](n2cnc3c(N4CCCC4)ncnc32)O1 | 4 | 14 | nt | nt | nt | nt | -4 | 6
Cc1cc(C)c(C#N)c(Nc2ccc3c(c2)OCCO3)n1 | -26 | -15 | -5 | i | 2 | 0 | -2 | 4
CCCn1c(C)cc(C(=O)COC(=O)c2cc(S(=O)(=O)NCC(C)C)c(Cl)cc2Cl)c1C | -12 | nt | 14 | i | 4 | 4 | -3 | -8
COc1ccc(CCNC(=O)Cn2cc(C(F)(F)F)cc(Cl)c2=O)cc1 | nt | -11 | 1 | i | -5 | 44 | -2 | 5
c1ccc(-c2nnsc2-c2ccccc2)cc1 | -10 | 12 | 1 | i | nt | 3 | 2 | 3
CC(=O)N1N=C(c2ccco2)CC1c1ccc(C)cc1 (stereo not drawn) | -14 | -32 | -4 | i | -2 | 16 | 5 | 7
CC(=O)N1CCN(c2ccc(S(C)(=O)=O)cc2[N+](=O)[O-])CC1 | -4 | 8 | -5 | i | 8 | 6 | 5 | 4
Fc1ccccc1COc1ccc(/C=N/NC(=S)NCc2ccccc2)cc1 | -19 | -50 | -6 | i | 7 | -4 | -7 | -5
COc1ccc(-n2c(SCc3ccc([N+](=O)[O-])cc3)nnc2-c2ccc(C)cc2)cc1 | nt | 18 | -19 | + | 14 | 2 | -6 | -9
COc1ccc(-n2c(Cn3c(=O)sc4ccccc43)nnc2SCC(=O)N2CCCC2)cc1 | 6 | -11 | -3 | nt | -9 | -9 | 4 | 4
O=C(C1CC1)N1CCc2cc(Br)cc(S(=O)(=O)N3CCCCCC3)c21 | nt | 7 | -7 | i | -9 | -7 | 5 | 2
CC1(C(=O)NCc2ccccc2Br)CCN1Cc1c(F)cccc1F (stereo not drawn) | -8 | -16 | nt | nt | nt | nt | 3 | -1
CC1CCc2nn(CC(=O)NCc3ccc4c(c3)OCO4)cc2C1 (stereo not drawn) | -20 | -8 | -2 | i | nt | -5 | -2 | 1
COc1cc2c(C)nc3onc(-c4ccccc4)c3c2cc1OC | -4 | 2 | 15 | i | -9 | -4 | 1 | -7
CC1(C)Oc2cc3oc(C(=O)O)cc(=O)c3cc2-c2ccccc21 | -23 | 6 | nt | nt | nt | nt | -13 | 7
COc1ccc(NCC(=O)Nc2c(C)cccc2C)cc1S(=O)(=O)N1CCOCC1 | -5 | -13 | nt | nt | nt | nt | -2 | -1
Cc1ccc(CCNC(=O)C2CCN(S(=O)(=O)c3ccc4c(c3)oc(=O)n4C)CC2)cc1 | -26 | -2 | 2 | i | -10 | -7 | 5 | 2
CCOC(=O)c1c(-c2ccccc2)csc1NC(=O)c1cc(-c2ccccc2OC)on1 | nt | 3 | nt | i | 3 | nt | -2 | -1
O=C(/C=C/c1ccco1)NCc1ccc2c(c1)OCO2 | -45 | 2 | 12 | i | -12 | 24 | -7 | 0
COc1ccc(-n2c(C)cc(C(=O)CSc3nnc(-c4ccoc4C)n3C)c2C)cc1 | -21 | -8 | 8 | i | 9 | 4 | 1 | -3
O=C(O)Cc1c[nH]c2cccc(O)c12 | -17 | nt | 94* | i | -1 | 88* | 0 | 2
COc1ccc(-c2nc(SC(CC(=O)NCc3ccccc3)c3ccc(OC)c(OC)c3)n[nH]2)cc1 (stereo not drawn) | nt | 9 | 5 | nt | -8 | 2 | 7 | 1
CC1CCc2cc(F)ccc2N1C(=O)CSc1nnc2c3ccccc3n(C)c2n1 (stereo not drawn) | -20 | nt | 25 | i | 1 | -12 | 9 | -1
Cc1ccc(NC(=O)CCNS(=O)(=O)c2ccccc2)cc1S(=O)(=O)N1CCOCC1 | 14 | -2 | nt | i | 0 | nt | 4 | 5
COc1ccc(N/C=C(\C=C\C#N)S(=O)(=O)c2ccccc2)cc1 | -15 | -5 | -9 | i | 3 | -6 | 4 | 1

Part of the list above in order of molecular weight, rising:
SMILES | Yeast UUG start | HIV Env fusion | PABP FP inh | Rce1 inh | CSC inhib | eIF4H inh | MT1-MMP act inh | MT1-MMP act inh RFP | others
CC1(C)Oc2cc3oc(C(=O)O)cc(=O)c3cc2-c2ccccc21 | -23 | 6 | nt | nt | nt | nt | -13 | 7
CC1CCc2nn(CC(=O)NCc3ccc4c(c3)OCO4)cc2C1 (stereo not drawn) | -20 | -8 | -2 | i | nt | -5 | -2 | 1
CC1(C(=O)NCc2ccccc2Br)CCN1Cc1c(F)cccc1F (stereo not drawn) | -8 | -16 | nt | nt | nt | nt | 3 | -1
COc1ccc(NCC(=O)Nc2c(C)cccc2C)cc1S(=O)(=O)N1CCOCC1 | -5 | -13 | nt | nt | nt | nt | -2 | -1

Returning to the listing, starting seven compounds before the break.
SMILES | Yeast UUG start | HIV Env fusion | PABP FP inh | Rce1 inh | CSC inhib | eIF4H inh | MT1-MMP act inh | MT1-MMP act inh RFP | others
O=C(/C=C/c1ccco1)NCc1ccc2c(c1)OCO2 | -45 | 2 | 12 | i | -12 | 24 | -7 | 0
COc1ccc(-n2c(C)cc(C(=O)CSc3nnc(-c4ccoc4C)n3C)c2C)cc1 | -21 | -8 | 8 | i | 9 | 4 | 1 | -3
O=C(O)Cc1c[nH]c2cccc(O)c12 | -17 | nt | 94* | i | -1 | 88* | 0 | 2
COc1ccc(-c2nc(SC(CC(=O)NCc3ccccc3)c3ccc(OC)c(OC)c3)n[nH]2)cc1 (stereo not drawn) | nt | 9 | 5 | nt | -8 | 2 | 7 | 1
CC1CCc2cc(F)ccc2N1C(=O)CSc1nnc2c3ccccc3n(C)c2n1 (stereo not drawn) | -20 | nt | 25 | i | 1 | -12 | 9 | -1
Cc1ccc(NC(=O)CCNS(=O)(=O)c2ccccc2)cc1S(=O)(=O)N1CCOCC1 | 14 | -2 | nt | i | 0 | nt | 4 | 5
COc1ccc(N/C=C(\C=C\C#N)S(=O)(=O)c2ccccc2)cc1 | -15 | -5 | -9 | i | 3 | -6 | 4 | 1
Cc1ccc(S(=O)(=O)C2(C(=O)N3CCN(C4CCCCC4)CC3)CC2)cc1 | -16 | -2 | 1 | i | -3 | 7 | -1 | -3
C[C@H](CO)N1C[C@H](C)[C@@H](CN(C)C(=O)Nc2ccccc2)Oc2ccc(NC(=O)Cc3ccccc3)cc2C1=O | 9&7 | -6[16.7 µM] | nt | nt | nt | nt | 1 | 2
CCOC(=O)c1ccccc1NC(=O)CSc1nnnn1C1CCCCC1 | nt | nt | 4 | i | 22 | -3 | 0 | 2
O=C(Nc1ccccc1)N(Cc1ccccc1)C1=NCCS1 | -17 | nt | -8 | i | -4 | -3 | 0 | 3
Cc1ccc(N2C(=O)CSCC2=O)cc1 | -8 | nt | 16 | i | 0 | -9 | -1 | 2
CCn1c(C)c(C(C)=O)c(N2CCN(C(=O)c3ccco3)CC2)nc1=S | -18 | nt | -1 | i | 0 | 2 | -8 | 0
Cc1ccc([N+](=O)[O-])cc1S(=O)(=O)Nc1ccccn1 | nt | nt | -3 | i | 11 | -10 | 1 | 2
COc1ccccc1NC(=O)c1cc([N+](=O)[O-])ccc1N1CCOCC1 | -7 | -8 | 1 | i | -7 | 1 | -4 | 3
O=[N+]([O-])c1ccc(/C=N/NC2=NS(=O)(=O)c3ccccc32)cc1 | -7 | 16 | 42 | nt | 3 | -3 | 0 | 7
COc1ccc(C2SCCN2S(=O)(=O)c2ccccc2)cc1OC (stereo not drawn) | 5 | nt | 0 | i | -2 | -2 | 1 | 1
O=C(CSc1nnc(-c2ccccc2)n1C1CCCCC1)Nc1ccc(S(=O)(=O)Nc2ccccn2)cc1 | -17 | nt | -2 | i | -11 | 4 | -6 | -8
CC(C)n1nc(C(=O)Nc2nnc(SCc3c(Cl)cccc3Cl)s2)c2ccccc2c1=O | -20 | 18 | -4 | i | 36 | -6 | -3 | 4
COc1cc(C(=O)N2CC(C)OC(C)C2)c([N+](=O)[O-])cc1OC (stereo not drawn) | -3 | nt | -4 | i | 7 | 1 | 8 | 0
COc1ccc2cc(C3(C)NC(=O)N(CC(=O)N4CCCCC4)C3=O)ccc2c1 (stereo not drawn) | -19 | 8 | nt | nt | 1 | nt | 4 | -2
CCC(=O)N1C(C(=O)O)CSC1c1ccc(OC)cc1 (stereo not drawn) | 2 | -13 | 14 | i | nt | -7 | -2 | 3
COc1ccc(/C=C/c2nc3ccccc3c(=O)o2)cc1 | -45 | 34 | -1 | i | 9 | 0 | 1 | 2
